High-throughput results deposited in PubChem BioAssay by several laboratories.
Hsc70 – small molecules displacing fluorescent ligand from Hsc70 – biochemical, fluorescence polarization, primary screen (AID 568); Hsc70 fluorescence polarization, probe displacement; higher % means a stronger effect; strong numbers were not always called active; displacement, % at 20 µM; hits with a dose series show IC50 in µM; 83,000 tested, under 10 active;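 active means displacement above 50% without optical interference and an IC50 on retest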;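 further: ATPase domain with a fluorescein-tagged ATP probe; 0% = vehicle and 100% = excess ADP; read after one hour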
MT1-MMP reporter – inhibitors of MT1-MMP promoter transcription, cell-based, luciferase reporter, luminescence (AID 618). calls from a first round at 10 µM; hits with a dose series show EC50 in µM. 0.62% of 87,000 active. MT1-MMP promoter luciferase reporter cells, luminescence;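 active means over half of the reporter light lost at 10 µM or EC50 under 50 µM; inactive means the rest and hits that failed the dose series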;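 further: actives suppress MT1-MMP promoter-driven transcription so potencies describe inhibitors; HT1080 fibrosarcoma cells; overnight exposure; toxic or luciferase-blocking compounds were not removed from the actives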
WNV NS2B-NS3 inh – WNV NS2B-NS3 proteinase inhibition; P06935; z-score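 (tested at a level between 10 and 100 µM)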; 0.18% of 65,000 active; WNV NS2B-NS3 protease, fluorogenic substrate Ex360/Em465; stronger effect = lower value; AID 577;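 active means z-score at -3 or under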;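 further: score is relative to mean and spread of the compound wells of a plate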
Target sequence (P06935 1371-1501 limits assumed): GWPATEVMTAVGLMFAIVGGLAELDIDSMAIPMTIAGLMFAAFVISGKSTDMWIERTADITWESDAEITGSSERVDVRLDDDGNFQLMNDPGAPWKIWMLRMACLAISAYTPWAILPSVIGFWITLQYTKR
Target sequence (P06935 1502-1679 limits assumed): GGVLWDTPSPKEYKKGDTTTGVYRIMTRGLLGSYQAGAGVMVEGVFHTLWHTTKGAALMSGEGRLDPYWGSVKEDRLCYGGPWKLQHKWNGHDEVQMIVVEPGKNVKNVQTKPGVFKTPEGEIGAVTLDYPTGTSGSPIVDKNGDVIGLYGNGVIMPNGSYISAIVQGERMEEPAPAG
An asterisk follows results filed as active; i = inactive; nt = not tested or not shown.

canonical_smiles | Hsc70 | MT1-MMP reporter | WNV NS2B-NS3 inh
COc1ccc(C2CC(c3cccc(C)c3)n3ncnc3N2)cc1 (stereo unspecified) | -1.2% | i | -4.1*
COc1ccc(-n2cnc3cc(NS(=O)(=O)c4ccccc4)ccc32)cc1 | -4.5% | i | nt
O=C(Nc1ccc(N2CCCCC2)c(C(=O)O)c1)c1ccco1 | 6.1% | i | 0.21
CC(C)(C)OC(=O)N1CCC(C(=O)N2CCCCCC2)CC1 | -0.9% | i | 0.86
Nc1scc(-c2ccncc2)c1Cl | -0.7% | i | -0.0073
Fc1ccc(Br)cc1C1C=C(c2ccc(Br)s2)Nc2ncnn21 (stereo unspecified) | -14% | i | -0.24
c1csc(-c2csc3nc(CN4CCOCC4)nc(NCc4ccc5c(c4)OCO5)c23)c1 | 1.7% | i | -0.29
CCN1CCN(CC(O)COc2ccc(C(C)=O)cc2)CC1 (stereo unspecified) | 5.4% | i | -0.53
COc1cc(C2c3c(oc4ccccc4c3=O)C(=O)N2c2ccc(C)cn2)ccc1O (stereo unspecified) | 2.9% | i | 1.5
COC(=O)c1ccc(NC(=O)C2CCCN2S(=O)(=O)c2ccc(OC)cc2)cc1 (stereo unspecified) | -6.9% | i | 1.6
CCc1cc2ccccc2nc1SCC(=O)N1CCN(C(=O)c2ccco2)CC1 | -3.3% | i | -0.58
O=c1[nH]nc(Sc2ncnc3sccc23)n1CCc1ccccc1 | 0.4% | i | 0.61
Cc1c(=O)n(OCc2c(F)cccc2F)c2ccccc2[n+]1[O-] | 1.8% | i | 0.74
CCCc1cc(=O)oc2cc(OCC(=O)Nc3cc(C)on3)ccc12 | 3.7% | i | 0.47
CN1CCc2nc(SCCOc3ccccc3)c(C#N)cc2C1 | 1.0% | i | -0.76
CCOC(=O)CSc1nnc(-c2cccc(Br)c2)o1 | -3.3% | i | -0.43
O=C(Cc1cccs1)NCc1ccccc1 | 2.2% | i | -0.44
O=C(CN1C(=O)c2ccccc2S1(=O)=O)NC1CCCC1 | 2.8% | i | -0.16
CC(C)NC(=O)c1cnc(Sc2ncc(C(F)(F)F)cc2Cl)n1C | 8.3% | i | nt
CCC(=O)Nc1ccc2nc(C)n(CC(=O)Nc3ccccc3)c(=O)c2c1 | -7.2% | i | -0.7
O=c1cc(NC2CCCCC2)c2ccccc2o1 | 0.2% | i | nt
Cc1ccc(NC(=O)CS(=O)CC(=O)N(CC(=O)NC2CCCC2)c2cc(C)ccc2C)cc1 (stereo unspecified) | -0.6% | i | -0.91
COc1cccc(-c2nc(C(N)=O)c3[nH]c(=O)n(-c4ccccc4)c3n2)c1OC | -1.8% | i | -0.06
CC(C)(C)c1ccc(C(=O)CSc2ncn[nH]2)cc1 | 3.0% | i | 1.8

Some of these compounds in order of count of non-hydrogen atoms, low to high.
canonical_smiles | Hsc70 | MT1-MMP reporter | WNV NS2B-NS3 inh
O=C(CN1C(=O)c2ccccc2S1(=O)=O)NC1CCCC1 | 2.8% | i | -0.16
CCc1cc2ccccc2nc1SCC(=O)N1CCN(C(=O)c2ccco2)CC1 | -3.3% | i | -0.58
c1csc(-c2csc3nc(CN4CCOCC4)nc(NCc4ccc5c(c4)OCO5)c23)c1 | 1.7% | i | -0.29

The list goes on.
canonical_smiles | Hsc70 | MT1-MMP reporter | WNV NS2B-NS3 inh
O=C(c1ccco1)c1cn(CC(=O)N2CCCCC2)c2ccccc12 | -1.6% | i | -1.1
O=C(c1cccs1)N(CC1CCCO1)c1nc(-c2ccccc2)cs1 (stereo unspecified) | -4.9% | i | 0.09
C=CCNc1nnc(SCC(=O)N2CCCCC2)c2ccccc12 | 2.1% | i | -0.93
Cn1nnc2cc(C(=O)NC(C)(C)C)ccc21 | 0.2% | i | -0.47
O=C(c1ccco1)N1CCN(C(=O)c2nn3cccnc3c2Cl)CC1 | 4.5% | i | nt
COCCNC(=O)CSc1nc2cc(OC)c(OC)cc2c(=O)n1Cc1ccco1 | 4.3% | i | -0.99
CCOc1ccc(/C(O)=C2/C(=O)C(=O)N(CC3CCCO3)C2c2ccco2)cc1 (stereo unspecified) | -2.1% | i | nt
CCOC(=O)C(Cc1ccccc1)NS(=O)(=O)c1ccc(NC(C)=O)cc1 (stereo unspecified) | -3.9% | i | 1.4
Cc1ccc(OCC(=O)O/N=C(\N)Cc2ccc(Cl)cc2)cc1 | 6.8% | i | nt
CCC(=O)N1CCc2cc(Br)cc(S(=O)(=O)NCCN3CCCCC3CC)c21 (stereo unspecified) | 0.1% | i | 2.6
COc1ccccc1N1CCN(C(=O)c2cc(-c3ccc4c(c3)OCO4)on2)CC1 | 1.7% | i | 1.2
CC(C)(C)C(=O)c1sc(Nc2ccccc2)nc1N | 3.6% | i | -0.39
CCCCCCc1nc2c(=O)[nH]c3ccccc3c2o1 | 1.4% | i | 0.65
CS(=O)(=O)Nc1ccc(C(=O)Nc2ccccc2C(=O)N2CCCC2)cc1 | 12% | i | -0.49
Cn1c(CN2CCCCC2)nc2cc(NC(=O)c3ccccc3Cl)ccc21 | 0.6% | i | nt
Cc1nn(Cc2ccccc2)c(C)c1NC(=O)c1cc(-c2cccs2)on1 | 5.6% | i | 0.49
c1ccc2c(c1)[nH]c1c(N3CCCC3)ncnc12 | 3.1% | i | -1.1
Cc1cc(N2CCCCC2)n2nc(C)c(-c3ccccc3)c2n1 | 4.0% | i | 0.6
CSc1nnc(-c2ccccc2)o1 | 6.2% | i | -0.99
Cc1cccc(CN2CCN(C(=O)c3ccccc3F)CC2)c1 | -2.3% | i | -0.73
COC(=O)CCC(=O)Nc1ccccc1C(N)=O | -4.5% | i | 2.4
CCN1C(=O)/C(=C\N2CCN(c3ccc(F)cc3)CC2)SC1=S | -2.7% | i | nt
Cn1c(SCC(=O)NC(=O)NCc2ccco2)nnc1C(F)(F)F | 4.5% | i | nt
CCNc1nc(SCC(=O)OC)nc(N2CCOCC2)n1 | 3.0% | i | -0.03

Carrying on:
| SMILES | Hsc70 | MT1-MMP reporter | WNV NS2B-NS3 inh |
| --- | --- | --- | --- |
| O=C(C1CCCN1S(=O)(=O)c1ccc(Cl)c(Cl)c1)N1CCCCC1 (stereo unspecified) | -2.6% | i | 0.42 |
| CS(=O)(=O)N(CC(=O)NCCSCc1cccc(Cl)c1)c1ccc2c(c1)OCO2 | 0.9% | i | 0.67 |
| O=C(NCCCN=C1NS(=O)(=O)c2ccccc21)c1ccncc1 | 2.6% | i | nt |
| Cc1cc(C2C(C#N)=C(N)SC(N)=C2C#N)c(C)s1 | -90% | i | 0.12 |
| COc1ccc(S(=O)(=O)N(CC(=O)NCC2CCCO2)c2ccccc2)cc1OC (stereo unspecified) | -2.0% | i | 0.15 |
| COc1ccc(-c2nnc(NC(=O)c3ccc(S(=O)(=O)N4COCC4(C)C)cc3)o2)cc1 | -2.3% | i | 2.1 |
| CCCCOc1ccc(-c2nnc(-c3ccncc3)o2)cc1 | 6.9% | i | 0.38 |
| CC(=O)c1cc(C#N)c(SCC(=O)O)nc1C | 7.4% | i | nt |
| CC(=O)Oc1c2occc2cc2ccc(=O)oc12 | 1.2% | i | 0.45 |
| COc1ccccc1-c1c(C)c(C)nc(N)c1C#N | -2.5% | i | 0.36 |
| CC1(c2ccccc2)NC(=S)N2C1NC(=S)N2c1ccccc1 (stereo unspecified) | -0.1% | i | nt |
| C=CCO/N=C(/C)c1c(O)c(CC)c(-c2ccccc2)n(-c2ccccc2)c1=O | 0.4% | i | nt |
| COC(=O)CSc1nc2sc(C)c(C)c2c(=O)n1C | 2.8% | i | 1.7 |
| Nc1nc(CN2CCN(Cc3ccccc3)CC2)nc(Nc2ccccc2)n1 | 6.3% | i | nt |
| O=C(NCCc1ccncc1)Nc1ccccc1 | 0.9% | i | -0.11 |

Only Hsc70 and MT1-MMP reporter (3 entries from above):
smiles,Hsc70,MT1-MMP reporter
CS(=O)(=O)N(CC(=O)NCCSCc1cccc(Cl)c1)c1ccc2c(c1)OCO2,0.9%,i
O=C(NCCCN=C1NS(=O)(=O)c2ccccc21)c1ccncc1,2.6%,i
Cc1cc(C2C(C#N)=C(N)SC(N)=C2C#N)c(C)s1,-90%,i

Further structures
| SMILES | Hsc70 | MT1-MMP reporter | WNV NS2B-NS3 inh |
| --- | --- | --- | --- |
| O=C(c1ccccc1)N1CC(COc2ccccc2)OC(c2cccnc2)O1 (stereo unspecified) | 4.2% | i | 0.5 |
| COc1cccc(N(C(=O)CNC(=O)c2ccco2)C(C(=O)NC2CCCC2)c2ccncc2)c1 (stereo unspecified) | 7.2% | i | 1.2 |
| CC(=O)c1cccc(NC(=O)c2ccc(N(Cc3ccccc3)S(C)(=O)=O)cc2)c1 | 0.5% | i | nt |
| Cc1cccc(N(C)C(=O)c2cc3cc4ccc(C)cc4nc3o2)c1 | -0.2% | i | -0.23 |
| O=C(Nc1nnc(SCC(=O)N2CCCCC2)s1)c1cccs1 | -0.4% | i | 0.36 |
| CCc1nnc(SCC(=O)Nc2ccccc2)nc1CC | -6.2% | i | -0.28 |
| Cc1nc2c3ccccc3n(CCN3CCCCC3)c2s1 | 1.2% | i | nt |
| Cc1ccc(-c2noc(CN(C(=O)C34CC5CC(CC(C5)C3)C4)C(C)C)n2)cc1 | -6.8% | i | 2.5 |
| Cn1c(=O)c2c(nc(NCCCO)n2Cc2cccc(C(F)(F)F)c2)n(C)c1=O | -3.9% | i | 0.81 |
| CCn1c(SCC(N)=O)nnc1-c1ccc2[nH]c(C)c(C)c2c1 | -0.9% | i | -1.3 |
| Cc1cccc(OCC(=O)Nc2ccccc2N2CCCCC2)c1 | -5.4% | i | -0.52 |
| CC(C)C(=O)Nc1cccc(S(=O)(=O)c2cccc(NC(=O)C(C)C)c2)c1 | 7.4% | i | nt |
| COc1ccccc1N1CCN(C(=O)CCn2c(=O)[nH]c3ccccc3c2=O)CC1 | 7.5% | i | nt |
| CCOC(=O)Nc1ccc2c(c1)N(C(=O)CCN1CCN(CCO)CC1)c1ccccc1S2 | -3.3% | i | nt |
| O=C(c1ccc(C(=O)N2CCN(c3ccccc3F)CC2)nc1)N1CCN(c2ccccc2F)CC1 | 4.9% | i | 0.02 |
| COC(=O)CSc1nc(N2CCCCC2)c2c(c1C#N)CCCC2 | 0.8% | i | -1.2 |
| COc1cccc(NC2=NC3(CCCCC3)N=C(N)N2)c1 | -4.0% | i | 1.8 |
| CCOc1cc2[nH]c(=O)n(CCc3ccc(OC)c(OC)c3)c(=O)c2cc1OCC | -2.8% | i | 1.2 |
| O=C(NCCCN1CCCC1=O)c1ccc2c(c1)NC(=O)C(N1CCOCC1)S2 (stereo unspecified) | 1.7% | i | 0.54 |
| CCOC(=O)C1=C(C)Nc2ncnn2C1c1cc(Br)ccc1F (stereo unspecified) | 3.7% | i | -1.7 |
| O=C(Nc1cnccn1)c1cccc(C(F)(F)F)c1 | 4.7% | i | -1.1 |
| CCOC(=O)c1cc2c(ccn2C)n1Cc1ccccc1C | -1.7% | i | 1.9 |
| c1ccc(Nc2cc(-c3ccccc3)nc3ncnn23)cc1 | -3.1% | i | -0.73 |
| Cc1nc(N2CCN(Cc3ccccc3)CC2)c(C#N)c2c1COC(C)(C)C2 | 42% | i | -0.34 |
| Cc1nc2sc(C(c3ccccc3)N3CCOCC3)c(O)n2n1 (stereo unspecified) | 5.0% | i | -0.48 |
| Cc1cc(N)n2ncc(-c3ccccc3)c2n1 | -4.1% | i | 0.37 |
| Cc1ccc(N2C(=O)C3C(C2=O)C2C=CC3C23CC3)cc1 (stereo unspecified) | 1.1% | i | -0.26 |
| O=C(Nc1ccc(Cl)cc1)N1CCSCC1 | 3.6% | i | 0.14 |
| CN1[C@@H]2CC(OC(=O)[C@H](CO)c3ccccc3)C[C@H]1[C@@H]1O[C@@H]12 (stereo partly specified) | 2.0% | i | -0.14 |
| COc1ccc(-c2nc(C#N)c(NCCc3ccccc3)o2)cc1 | -4.8% | i | 1 |
| O=C(c1cc2ccccc2oc1=O)N1CCCN(C(=O)c2cc3ccccc3oc2=O)CC1 | -4.0% | i | 0.36 |
| CCOc1ccccc1-c1nc(-c2ccncc2)no1 | 1.4% | i | nt |
| Cc1ccc(S(=O)(=O)N2CCN(C(=O)c3cc4c(C)nn(-c5ccccc5)c4s3)CC2)cc1 | -1.7% | i | nt |
| O=C(c1ccc(N2C(=O)C3CC=C(Cl)CC3C2=O)cc1)N1CCCCC1 (stereo unspecified) | -7.3% | i | -0.33 |
| COC(=O)c1ccc(NC(=O)C23CC4CC(C2)CC(n2cncn2)(C4)C3)cc1 | 0.4% | i | nt |
| COc1ccc(CCn2c(N3CCN(Cc4ccccc4)CC3)nc3c2c(=O)[nH]c(=O)n3C)cc1 | -4.1% | i | -0.78 |
| O=C(CN1C(=O)C2C3C=CC(C3)C2C1=O)Nc1ccc2c(c1)OCCO2 (stereo unspecified) | -4.4% | i | 0.53 |
| CCOC(=O)CNC(=O)CN1C(=O)CCS(=O)(=O)c2ccccc21 | 2.0% | i | -0.06 |
| O=C(Nc1cc(S(=O)(=O)N2CCCC2)ccc1Cl)C1=COCCO1 | 1.6% | i | nt |
| Cc1cc[n+](CC(=O)c2cccs2)cc1 | 2.6% | i | nt |
| COc1ccc(OC)c(-n2nnnc2SCC(=O)Nc2ccc(C(=O)N3CCCCC3)cc2)c1 | -5.5% | i | 0.85 |
| Cc1ccc(C(=O)CSc2ncn[nH]2)cc1 | 6.8% | i | -0.37 |
| CSC1=NCCN1C(=O)C(C)Oc1ccccc1 (stereo unspecified) | 0.5% | i | 0.24 |
| O=C1CSC(c2cn(-c3ccccc3)nc2-c2cccs2)N1CC1CCCO1 (stereo unspecified) | 5.1% | i | -0.34 |
